# Compound activity (PubChem)
# A1 inh = inhibitors of the anti-apoptotic protein A1, read as caspase activation; MEF A1-2A-BIM cells, Caspase-Glo 3/7 luminescence, 3 h; percent of clofoctol response, vehicle zero; caspase activation, % (no concentration beside the values); actives 0.066% (n = 330,000);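 active = over half of replicate activation scores above 10%, or exactly half above 10 with the replicate mean above 10; inconclusive = replicate mean below 10 yet half the replicates above 10; inactive = over half of replicates below 10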;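 also: wells of about 30 µL received 50 nL stock; many hits fall short of the cut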
# Beta apoptosis = beta cell apoptosis inhibition | INS-1E cytokine-induced death, ATP luminescence, 48 h; percent of positive-control rescue, neutral wells zero | protection from apoptosis, % (no concentration beside the values) | actives 0.8% (n = 300,000) | AID 435005;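 active = all replicates at 75% or more, or half of them and the mean; inconclusive = half reach 75% but not the mean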;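 also: 0% = cytokine-treated negative control wells and 100% = positive control rescue; higher means more ATP so stronger rescue from cytokine killing; wells of about 40 µL received 100 nL stock; the first replicate is given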
# Calb FLC = C. albicans growth modulation with fluconazole. C. albicans CaCi-2 (fluconazole-resistant clinical isolate) + fluconazole, Alamar Blue growth, 48 h. growth inhibition, % (concentration not given with the values). actives 0.57% (n = 300,000);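 active = most replicates above 75%; inconclusive = exactly half above 75%; inactive = most below 75%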;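 also: all wells also contain fluconazole at 8 µg/ml as a sub-toxic cotreatment; 0% = median of DMSO wells and 100% = median of geldanamycin control wells; wells of about 8 µL received 7.5 nL stock; the first replicate is given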
# T cruzi repl = T. cruzi replication inhibition. T. cruzi beta-gal in NIH3T3, luminescence, 90 h. inhibition, % (concentration not given with the values). actives 1.4% (n = 300,000). AID 1885;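 active = mean inhibition across valid replicates above about 55%, limit read from the data; inconclusive = mean below that limit but half or more replicates reach it; inactive = mean below it, under half of replicates reach it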;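 also: signal also drops with host cell toxicity which is not excluded here; 0% = plate median of DMSO wells and 100% = zero luminescence signal; higher percent means less beta-gal luminescence so fewer parasites; stock transfer was 50 nL into about 50 µL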
# AF4-AF9 inh = blocks AF4 peptide binding to human AF9. P42568. AlphaScreen, biotin-AF4 peptide binding to FLAG-AF9. inhibition, % at 10 µM. actives 0.47% (n = 350,000). AID 651704;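 active = every replicate reaching a set inhibition limit, whatever the replicate mean, cut at about 25% in these data; inconclusive = mean inhibition reaches that limit but some replicates miss it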;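 also: 0% = plate neutral control median and 100% = total signal loss; the record names both 10 and 1 µM as test concentration; the first replicate is given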
# Target sequence (P42568 whole entry, looked up): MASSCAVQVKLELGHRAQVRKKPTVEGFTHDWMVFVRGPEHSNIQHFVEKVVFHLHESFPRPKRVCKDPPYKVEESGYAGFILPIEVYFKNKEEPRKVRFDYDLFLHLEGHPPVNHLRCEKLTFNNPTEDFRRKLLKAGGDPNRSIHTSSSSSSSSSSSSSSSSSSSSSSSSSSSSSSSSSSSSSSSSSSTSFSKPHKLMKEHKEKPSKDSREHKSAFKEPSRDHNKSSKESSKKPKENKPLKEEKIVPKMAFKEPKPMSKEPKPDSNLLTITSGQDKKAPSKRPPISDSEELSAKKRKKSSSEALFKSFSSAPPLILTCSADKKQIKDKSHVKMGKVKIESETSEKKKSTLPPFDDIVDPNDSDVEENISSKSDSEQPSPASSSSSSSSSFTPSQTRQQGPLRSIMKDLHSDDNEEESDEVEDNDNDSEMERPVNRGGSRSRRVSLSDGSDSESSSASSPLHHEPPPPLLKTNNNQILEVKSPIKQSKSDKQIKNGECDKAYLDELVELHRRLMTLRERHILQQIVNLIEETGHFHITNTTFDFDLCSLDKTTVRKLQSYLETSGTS
# Vif A3G = HIV-1 Vif–A3G interaction blockers – biochemical, TR-FRET, GST-Vif 1-94, biotin-A3G peptide, dose response retest, primary screen (AID 1117319); TR-FRET GST-Vif / biotin-A3G peptide binding; higher % means a stronger effect; test concentration not given here; strong numbers were not always called active; inhibition, %, or IC50 in µM where a hit was titrated; actives 0.57% (n = 260,000);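 active = above the screen mean plus three standard deviations and confirmed in dose response; inconclusive = results disagree or hit not tested in dose response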;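 also: Vif residues 1-94 fused to GST binding biotinylated APOBEC3G peptide 110-148; 0% = full assay without inhibitor and 100% = GST in place of GST-Vif; retest series ran down from 100 µM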
# Ecoli rRNA inh = inhibits bacterial ribosomal RNA function over humanized ribosomes; E. coli WT GFP vs humanized-ribosome RFP mutants, fluorescence, 24 h; active compounds read low; DMSO median 0, no signal -100; GFP signal change (wild-type ribosome), % (test concentration not listed); actives 1.6% (n = 350,000);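 active = significant combined selectivity score with lowered wild-type GFP, culture density cut under 30%, mutant RFP and density less affected; inactive = any of these conditions unmet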; also: one replicate is shown; some compounds called inactive have numbers as strong as hits
# RanGTP-Impb inh = disruptors of Ran-importin-beta complex formation – biochemical, FRET, CFP-Ran, YFP-importin-beta, homogeneous, primary screen; cell-free CFP-Ran/YFP-importin-beta FRET ratio; inhibition, % (concentration not given with the values); actives 1.1% (n = 300,000); AID 2216;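 active = most replicates above 15%; inconclusive = exactly half above 15%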;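 also: 0% = DMSO wells and 100% = Ran loaded with GDP instead of GTP; wells of about 40 µL received 100 nL stock; the first replicate is given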
# Ecoli rRNA inh OD600 = recorded beside Ecoli rRNA inh, whose call it bears; OD600 change, %; measured here: OD600 growth;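 optical density of the mix in the first replicate; 0 = DMSO median and -100 = no signal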
# Ecoli rRNA inh RFP = further read-out of Ecoli rRNA inh, marked with its call; RFP signal change, %; measured here: RFP humanized mutant strains;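 first replicate; 0 = DMSO median and -100 = no signal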
# Starred values were filed as active, the others as inactive; ? = inconclusive; nt = not tested or not shown; & = joins results of further samples.
SMILES,A1 inh,Beta apoptosis,Calb FLC,T cruzi repl,AF4-AF9 inh,Vif A3G,Ecoli rRNA inh,Ecoli rRNA inh OD600,Ecoli rRNA inh RFP,RanGTP-Impb inh
CCNC(=S)N(Cc1ccccc1)Cc1nc2ccccc2c(=O)[nH]1,0.8,-6,7,3,3.1,-1%,4,0,-3.3,-1.1
CC(C)Sc1nc(N2CCCC2)c2c(c1C#N)CC(C)(C)OC2,2.4,0,-1,32,nt,-8%,nt,nt,nt,-2.7
Nc1ccccc1SC/C=C/CSc1ccccc1N,0.2,0,-1,8,2.3,-7%,-47,-65,-7.5,-3.8
O=C(Nc1ccc(Cl)c(Cl)c1)N1CC=CCC1,-5.7,1,2,9,nt,?,nt,nt,nt,7.3
Cc1cc(C)cc(NC(=O)C2CCCN(c3nccc(C)n3)C2)c1 (stereo unspecified),1.3,-1,-16,10,7.0,-8%,-3,3,3.3,3.7
Cc1sc2nc(CSCC(=O)Nc3ccc(C(=O)N(C)C)cc3)[nH]c(=O)c2c1C,1.0,-6,nt,nt,-0.2,-6%,7,10,-0.7,nt
NC(=O)c1ccccc1NC(=O)C(c1ccccc1)c1ccccc1,-0.3,nt,-3,5,2.0,nt,-14,5,0.3,-0.9
Cc1ccccc1N1CCN(C(=O)c2ccccc2NC(=O)/C=C\C(=O)O)CC1,0.1,-7,-4,-3,nt,15%,nt,nt,nt,?
C[C@H](NC(=O)Nc1ccccc1F)C(=O)O,0.3,-5,3,-16,-3.9,-8%,nt,nt,nt,-2.4
COc1ccc(C(C)=O)cc1COC(=O)c1cc2ccccc2cc1O,0.3,4,-3,-3,-0.6,nt,4,5,-0.5,-0.3
CC(C)CSc1nc2ccccc2n1CC(=O)O,-1.2,-4,-10,-28,-14,10%,3,8,-0.6,7.4
CCCCCn1c(=O)c(C(=O)OCC)c(Cl)c2ccccc21,0.0,-9,-11,-6,-8.6,0%,-27,-31,-4.8,0.5
CCc1n[nH]c2c1/C(=N\O)CC(C)(C)C2,1.0,3,10,2,nt,-7%,nt,nt,nt,1.8
CCOC(=O)/C(C#N)=C1/C=CN(c2ccccc2)C=N1,0.6,3,26,-10,nt,0%,nt,nt,nt,2.2
CCOC(=O)C1=C(C)N(C)C(=O)NC1c1c(OC)ccc2ccccc12 (stereo unspecified),0.6,-3,-3,11,-0.4,nt,0,4,-1.5,2.0
Cc1ccc(C)c(NC(=O)CCC(=O)N/N=C/c2ccc[nH]2)c1,0.4,-4,30,-19,nt,11%,nt,nt,nt,-1.0
COc1ccc(O)c(C(=O)c2cnn(-c3ccccn3)c2)c1,-0.6,-3,-4,-7,1.7,18%,-2,2,0.8,-3.2
CN(C)CC1CCCCC1OC(=O)c1ccc(Cl)cc1Cl (stereo unspecified),1.6,-1,-16,-6,-0.7,9%,1,-4,-3.2,2.8
Cc1ccc(-c2nc3ncccc3o2)cc1NC(=O)c1cccs1,1.1,-2,4,-4,1.1,-16%,9,6,0.2,-0.8
O=C(c1ccc(N2CCCC2=O)cc1)N1CCN(c2ccccc2O)CC1,-0.2,-6,nt,nt,-19,nt,-2,-5,0.9,nt
COC(=O)c1ccccc1OC(=O)c1cc2ccccc2oc1=O,-1.3,-1,-2,2,-2.7,2%,6,-7,4.9,0.5
CCC(C(=O)OCC(=O)Nc1ccc(C(=O)Nc2ccc(OC)cc2)cc1)c1ccccc1 (stereo unspecified),0.1,14,5,-17,0.7,-6%,-10,-4,0.1,7.5
Cc1cc(C(=O)CN2C(=O)NC(c3ccccc3)(c3ccccc3)C2=O)c(C)n1Cc1ccco1,0.0,0,-26,?,nt,21%,nt,nt,nt,2.5
CC1CCN(S(=O)(=O)c2ccc3c(ccn3CC(=O)O)c2)CC1,1.9,-6,45,-13,-1.8,-2%,3,8,-1.7,0.1
COc1ccc(OC)c(NC(=O)COC(=O)c2c(C)noc2C)c1,-0.6,-5,nt,nt,-0.2,nt,1,-3,-0.1,nt
Cc1ccc2oc(C(=O)NCCCN3CCOCC3)c(C)c2c1,0.2,-5,3,13,-1.6,nt,16,9,1.2,2.7
CCOC(=O)c1ccc(N2CCN(C(=O)c3ccccc3)CC2)c(NC(=O)c2ccco2)c1,-0.6,4,4,10,-1.4,0%,-17,-24,-1.3,-3.8
Cn1nccc1NS(=O)(=O)c1ccc(NC(=O)C(F)(F)F)cc1,0.2,1,-3,-5,nt,2%,25,16,0.7,0.0
CCOc1ccc(-n2ccc(=O)c(C(=O)Nc3ccc(S(=O)(=O)Nc4nccs4)cc3)n2)cc1,1.2,-8,nt,-4,1.4,nt,-3,20,7.4,-0.6
CCOC(=O)C1CCN(C(=O)c2cc(COc3ccc(F)cc3F)on2)CC1,-0.8,nt,-15,-2,-1.5,-1%,1,1,1.3,-1.9
CCCN(CC1CC1)C(=O)COc1ccccc1C(=O)NCc1ccccc1,0.8,0,-2,4,nt,3%,-37,-69,-4.9,1.2
CC(C)c1ccc(C2NC(C(=O)O)CS2)cc1 (stereo unspecified),0.7,nt,10,-6,nt,4%,-3,-5,-2.8,2.1
Cc1nc(-c2cccc(NS(=O)(=O)c3ccccc3)c2)cs1,0.1,-7,7,5,nt,3%,nt,nt,nt,3.6
N=C1SCC(=O)N1c1ncc(Cc2cccc(Cl)c2)s1,nt,nt,13,15,-7.2,-8%,-55,-78,-28,2.7
Cc1onc(-c2ccccc2Cl)c1C(=O)NCc1ccccn1,-0.7,-6,-4,-16,nt,-1%,nt,nt,nt,5.0
CCNC(=S)SCCOc1ccc(C)cc1,0.1,7,-3,2,nt,nt,nt,nt,nt,2.2
CCOC(=O)c1cnc2nc(SCc3ccccc3Cl)[nH]n2c1=O,1.7,1,-7,1,3.1,nt,-11,0,1.0,0.9
O=C(NCCCNc1ccc([N+](=O)[O-])cc1Cl)c1ccccc1F,-0.1,nt,3,-1,-13,?,-12,-9,1.7,1.0
CNC[C@@H]1Oc2ccc(NC(=O)Nc3cccc4ccccc34)cc2C(=O)N([C@@H](C)CO)C[C@@H]1C,-0.8,1,nt,nt,0.7,nt,3,-1,-1.0,nt
Cc1cccc(NC(=S)NCCc2ccccc2)n1,0.7,5,33,10,-2.0,20%,0,2,-1.3,?
O=c1c2ccccc2ncn1Cc1ccccc1,0.6,-2,0,5,-0.8,-8%,-2,5,1.9,2.9
Cc1nc(SCC#N)c2c3c(sc2n1)CCC3,-0.5,-5,-13,11,nt,7%,nt,nt,nt,-2.1
S=C1SCN(CCN2CCOCC2)CN1Cc1ccccc1,-1.2,-7,11,-8,nt,-1%,nt,nt,nt,2.8
CCCc1cc(-n2cnc3ccccc32)n2c(nc3ccccc32)c1C#N,-0.1,nt,36,3,nt,-4%,nt,nt,nt,3.2
COc1ccc(C)cc1S(=O)(=O)N1CCN(S(=O)(=O)c2cc(C)ccc2OC)C(C)C1 (stereo unspecified),0.1,-10,6,2,nt,-5%,nt,nt,nt,-0.7
Cc1c(C2(O)CCCCC2)[nH]c2cc(C(F)(F)F)ccc12,-0.8,15,nt,nt,-2.0,nt,-26,-60,-2.2,nt
COc1ccc(COCCN2CCN(S(=O)(=O)c3ccc(C)cc3)CCC2=O)cc1,-0.8,-2,-14,-9,-1.4,6%,-2,-8,-3.2,-6.1
CCOC(=O)C1CCN(C(=O)c2n[nH]c(=O)c3ccccc23)CC1,-0.4,nt,-2,-12,nt,-5%,nt,nt,nt,-1.5
CC(C)(C)CC(=O)Nc1nnc(-c2cccs2)s1,-0.3,-4,3,-1,nt,-2%,nt,nt,nt,-0.4
O=c1[nH]c(CSc2nnc(NCCCN3CCOCC3)s2)nc2cc(Cl)ccc12,1.2,-5,-2,11,nt,4%,-2,5,-0.7,1.1
COc1ccc(C2C(C(C)=O)=C(O)C(=O)N2c2ccccn2)cc1 (stereo unspecified),0.6,1,-5,-8,-1.3,-4%,9,18,-3.2,?
COc1ccc(C2=NS(=O)(=O)N(C)C(C(=O)N3C(C)CCCC3C)=C2)cc1 (stereo unspecified),-0.2,-4,-2,0,14,nt,2,-11,4.4,8.4
O=C(CSc1nc2ccccc2c(=O)n1CCC(=O)N1CCCCC1)NCc1ccccc1,0.4,-9,-7,16,nt,15%,nt,nt,nt,-3.3
CCCc1cc(=O)oc2cc(C)cc(OC(=O)c3ccco3)c12,-0.1,2,21,3,7.1,-2%,-1,-3,-2.4,-1.1
Cc1ccc(N2C(=O)C3C4C=CC(CNC(=S)N5CCN(c6cccc(C)c6)C(C)C5)(O4)C3C2=O)cc1 (stereo unspecified),0.9,2,1,-13,3.0,7%,-2,4,-1.2,-2.1
COc1ccc(N2C(=O)CC(Sc3nc4c(cc3C#N)CCC4)C2=O)cc1 (stereo unspecified),0.1,1,-8,-3,-1.9,?,-15,-14,-2.6,4.3
N#CC1=C(N)OC2=C(C(=O)CCC2)C1CCc1ccccc1 (stereo unspecified),1.0,-3,2,-11,nt,24%,nt,nt,nt,-1.6
CC(C)CCNC(=O)C(c1cccnc1)N(Cc1ccccc1)C(=O)Cn1nnc2ccccc21 (stereo unspecified),-0.5,-2,10,56*,nt,-2%,nt,nt,nt,-1.0
CC(C)NC(=O)N(C)C[C@H]1Oc2ccc(NC(=O)CCC(F)(F)F)cc2C(=O)N([C@H](C)CO)C[C@@H]1C,1.1,3,nt,nt,-0.3&1.0&-0.8,nt,8&1,2&-4,6.3&-3.6,nt
O=C(Oc1cccnc1)c1ccco1,1.5,-4,4,-6,nt,-6%,nt,nt,nt,0.6

# (list continues)
SMILES,A1 inh,Beta apoptosis,Calb FLC,T cruzi repl,AF4-AF9 inh,Vif A3G,Ecoli rRNA inh,Ecoli rRNA inh OD600,Ecoli rRNA inh RFP,RanGTP-Impb inh
Cc1c(N2C(=O)/C(=C/C3CC=CCC3)SC2=S)c(=O)n(-c2ccccc2)n1C (stereo unspecified),-0.3,-10,0,-7,4.3,?,-7,-2,4.2,2.2
CCC(C)N(C(=O)Cn1cnc2c1c(=O)n(C)c(=O)n2C)C1CCS(=O)(=O)C1 (stereo unspecified),-0.4,-6,-2,-1,16,-4%,10,17,-1.8,0.2
O=C(Nc1ccc2c(c1)C(=O)OC2)c1ccc(Cl)cc1,-0.9,-11,1,5,-1.6,0%,12,16,-1.0,-5.9
Cn1cc(P(=S)(N2CCOCC2)N2CCOCC2)cc1P(=S)(N1CCOCC1)N1CCOCC1,0.3,-2,46,3,-3.2,-7%,5,7,-1.8,0.0
CSc1ccc(S(=O)(=O)N2CCC(C(=O)Nc3ccc(C(N)=O)cc3)CC2)cc1,?,-4,-14,-7,-0.8,-5%,13,10,3.3,1.7
COc1ccccc1-c1nc(-c2ccc(C)nc2OC)no1,-3.3,-4,-18,16,nt,-6%,nt,nt,nt,2.0
Cc1ccc(N(CC(=O)NCc2ccc3c(c2)OCO3)S(=O)(=O)c2c(C)noc2C)cc1,-0.4,6,-7,-2,9.3,1%,7,6,-5.3,-5.5

# Not all compounds are listed. The share of hits here may be higher or lower than overall.
